Screening results from PubChem BioAssay.
PINK1 modulator: A Quantitative High throughput Screen to Identify Chemical Modulators of PINK1 Expression; PINK1 immunofluorescence, high-content cytometry, 24 h; Potency, µM (titrated, usually from 76.6 µM), inactives show at the top dose activation (PINK1 increase), hits mostly activators; 410,000 compounds, 0.2% hits; active = well fitted activation curve with a large enough effect; inconclusive = small, poorly fitted or top-dose-only effect; inactive = flat fitted curve, though single readings scatter; cell line not stated here;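 further: potency means the concentration at half of the fitted maximal effect; % of control where 0% means no effect; nearly all actives have a fitted effect of over 65% in size; a mitochondrial uncoupler was the plate control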
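Fluorescence from anti-PINK1 antibody, together with nuclear and cell stains, was scanned on a laser-scanning cytometer. Before staining, stable-line cells were incubated 24 hours with compounds at 5 concentrations; primary antibody 12 h at 10 degrees C.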
D2 agonist: Beta-Arrestin HTS for Positive Allosteric Modulators of the Human D2 Dopamine Receptor: Agonists; activation, % (test concentration not listed); AID 624465, 2012; DiscoveRx PathHunter D2 beta-arrestin, luminescence, 90 min; 100% = 57 uM dopamine signal; D(2) dopamine receptor (Homo sapiens), P14416; 360,000 compounds, 0.084% hits; in the data active = activation above about 40%; inconclusive = about 15% to 40%; inactive = below about 15%; further: compound concentration not given in the record; the text of the record calls up to 30% inactive
Target sequence (P14416 whole entry, looked up): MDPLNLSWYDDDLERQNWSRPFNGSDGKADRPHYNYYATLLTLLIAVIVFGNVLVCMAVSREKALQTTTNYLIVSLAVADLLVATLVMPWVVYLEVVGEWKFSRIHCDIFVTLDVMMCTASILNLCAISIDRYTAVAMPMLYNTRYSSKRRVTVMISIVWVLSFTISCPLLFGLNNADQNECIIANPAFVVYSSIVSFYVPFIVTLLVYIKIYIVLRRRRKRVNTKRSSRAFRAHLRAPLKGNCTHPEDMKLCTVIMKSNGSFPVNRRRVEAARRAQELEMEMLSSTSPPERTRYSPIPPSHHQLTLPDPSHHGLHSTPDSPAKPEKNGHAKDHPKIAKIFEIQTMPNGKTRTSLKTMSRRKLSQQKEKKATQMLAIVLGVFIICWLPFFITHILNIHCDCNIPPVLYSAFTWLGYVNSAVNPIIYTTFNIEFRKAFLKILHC
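DiscoveRx PathHunter D2 beta-arrestin cells (2,100/well) attached overnight, then compound-stimulated 90 min at 37 C in HBSS/10 mM HEPES/0.1% Tween-20 buffer; beta-galactosidase complementation read by luminescence after 1 h at ambient temperature. Dopamine 57 uM final (EC100) as control.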
ClpP mod: qHTS Assay for Activators of ClpP. ATP-dependent Clp protease proteolytic subunit (Bacillus subtilis (strain 168)), P80244. purified B. subtilis ClpP, FRET peptide cleavage, 20 min. Potency, µM (top dose mostly 57.5 µM), without a hit: at the highest dose activity change, negative = active. 340,000 compounds, 1.9% hits. AID 651965, 2013; active = well fitted falling curve with a large enough effect; inconclusive = small, poorly fitted or top-dose-only effect; inactive = no such curve, though single readings can be large or run the other way; further: potency means the concentration at half of the fitted maximal effect; the source files actives as falling curves though it sought activators and does not explain the sign; nearly all actives have a fitted effect of over 65% in size; many hits overshoot -100%
Target sequence (P80244 whole entry, looked up): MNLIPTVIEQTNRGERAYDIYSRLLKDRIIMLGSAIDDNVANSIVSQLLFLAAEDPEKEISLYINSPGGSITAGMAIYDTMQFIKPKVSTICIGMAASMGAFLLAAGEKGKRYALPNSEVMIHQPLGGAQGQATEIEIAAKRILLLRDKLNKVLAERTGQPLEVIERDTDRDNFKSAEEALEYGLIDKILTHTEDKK
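ClpP 10 microg/mL final, pH 8 Tris/KCl buffer with BSA, glycerol, Tween-20; compound pinned in; FRET-FV substrate; RT 20 min; Ex320/Em430; ΔFRET vs ADEP 5.8 microM, DMSO, no enzyme.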
Menin-MLL FL inh: qHTS Assay for Inhibitors Targeting the Menin-MLL Interaction in MLL Related Leukemias: Competition With Fluorescein Labeled MLL-derived Peptide; Fluorescence polarization, fluorescein-MLL peptide displacement from menin; FP activity change, % at 61.4 µM; 290,000 tested, under 10 active; inconclusive = falling polarisation curve, or a change in total fluorescence; inactive = total fluorescence flat and polarisation flat or rising; no compound was filed as active; the % refers to the polarisation; negative = inhibition;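 further: % of control where 0% means no effect; inhibitors lower the polarisation; unlabelled MLL peptide was the positive control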
gsp antag: qHTS for Antagonists of gsp, the Etiologic Mutation Responsible for Fibrous Dysplasia/McCune-Albright Syndrome: qHTS | gsp-mutant cells, cAMP HTRF, 30 min; control for the full effect not named in the record | AID 624288, 2012 | 340,000 compounds, 0.4% hits | Potency, µM (highest dose often 76.9 µM), inactives show top-dose activity change, negative = inhibition, actives largely listed as inhibitors; active = falling curve of any shape with a large fitted effect; inconclusive = falling curve, mostly with a smaller effect; inactive = flat or rising curve; cell line not stated here;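 further: intracellular cAMP measured with PDE inhibitor Ro 20-1724 present during compound exposure; potency means the concentration at half of the fitted maximal effect; on the % scale 0 is the no-effect control and ±100 the full control effect; nearly all actives have a fitted effect of over 65% in size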
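G418-selected cells were plated in DMEM/10% FBS for 16-24 h at 37C, then treated with compounds plus the PDE inhibitor […] (300 uM solution added) for 30 min at 37C. Intracellular cAMP was measured by HTRF after 30 min lysis at room temperature.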
gsp ag: qHTS for Agonist of gsp, the Etiologic Mutation Responsible for Fibrous Dysplasia/McCune-Albright Syndrome: qHTS; gsp mutant cells, cAMP HTRF, 30 min; control for the full effect not named in the record; Potency, µM (series often up to 76.9 µM), for inactives: at the highest dose activation (cAMP increase), hits mostly activators; 340,000 compounds, 0.13% hits; active = well fitted activation curve with a large enough effect; inconclusive = small, poorly fitted or top-dose-only effect, or another doubt; inactive = no such curve, though single readings can be large or run the other way; cell line not stated here;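 further: phosphodiesterase inhibitor Ro 20-1724 added with compounds to block cAMP breakdown; potency means the concentration at half of the fitted maximal effect; nearly all actives have a fitted effect of over 60% in size; about a fifth of the inactives were tested at one dose only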
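Cells stably selected in G418 were plated at 2000/well, grown 16-24 hr, then given compounds in DMSO with the PDE inhibitor […] (300 uM solution added) for 30 min at 37C; cAMP was read by HTRF.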
Sfp PPTase inh: qHTS Assay for Inhibitors of Bacillus subtilis Sfp phosphopantetheinyl transferase (PPTase); AID 1490, 2009; Biochemical Sfp PPTase activity, qHTS; Potency, µM, for the others: max response, negative = inhibition, most hits filed as inhibitors; 310,000 compounds, 3.5% hits; active means well fitted inhibition curve with a large enough effect; inconclusive means small, poorly fitted or top-dose-only effect, or another doubt; inactive means no such curve, though single readings can be large or run the other way;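 further: the enzyme is Sfp with the accession as filed and its product quenches rhodamine fluorescence; potency means the concentration at half of the fitted maximal effect; 0% = enzyme reaction without inhibitor and -100% = no enzyme wells; top concentration of the series not given in the record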
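Reaction rates are the 30-min fluorescence difference (ex 525, em 598 nm) in wells containing 15 nM Sfp, 5 uM rhodamine-CoA and 12.5 uM BHQ-2-YbbR at pH 7.6 with 10 mM MgCl2.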
Starred values were filed as active, the others as inactive; u = inconclusive; x = not tested or not shown; & = joins results of further samples; ! = not confirmed by another sample; [ ] = another dose, or the depositor's remark.

item	canonical_smiles	Sfp PPTase inh	gsp antag	gsp ag	D2 agonist	PINK1 modulator	Menin-MLL FL inh	ClpP mod
1	c1ccc(Cc2nnc3sc(-c4cccs4)nn23)cc1	10%	7%	-11%	-2.4	-4.3%[38.3 µM]	7.8	-6.5%
2	CCOC(=O)c1cn(CC(=O)Nc2cccc(Cl)c2C)nn1	13%	11%	3%	-0.6	2.9%&-0.2%	-1.2	35µM*!
3	CCCc1nc2ccc(C)cn2c1Cc1ccc(OC)cc1C	x	x	x	-6.1	2.0%	x	2.1%
4	CC12CCCC(C(C#N)C(N)=O)(C1)NC(=O)C2C#N (stereo unspecified)	x	9%	11%	4.2	1.8%	x	-4.6%
5	CC1=NN2C(=N)/C(=C\c3ccc(SCc4ccccc4)o3)C(=O)N=C2S1	-6%	-1%	u	-2.6	-3.3%	u	-3.9%
6	COc1ccc(C(=O)Nc2ccc(S(=O)(=O)N3CCCC3)cc2)c(OC)c1	10%	22%	u	-4.3	8.6%	-0.6	1.3%
7	O=C1CC(N2CCC(O)(c3ccc(Cl)cc3)CC2)C(=O)N1 (stereo unspecified)	-3%	11%	-11%	-4.7	1.3%	4.2	0.6%
8	COc1ccc(OC)c(-c2cc(C3CCN(c4cc(Cl)nc(N)n4)CC3)[nH]n2)c1	-5%	35µM*	-65%[inhibitor]	u	0.2%	39[activator]	u
9	NC(=O)c1ccsc1NC(=O)COC(=O)CCCOc1ccccc1	x	0%	2%	-2.3	-0.7%	x	-2.6%
10	CCc1nnc(NC(=O)C2CC(=O)N(Cc3ccco3)C2)s1 (stereo unspecified)	-6%	13%	-25%	-0.9	-2.2%	-1.2	4.7%
11	COC(=O)Cn1c(=NC(=O)CCS(=O)(=O)c2ccccc2)sc2c(OC)ccc(OC)c21	2%	21%	u	-2.4	3.6%	x	-0.6%
12	O=C(CCNS(=O)(=O)c1ccccc1)NNC(=O)C1COc2ccccc2O1 (stereo unspecified)	x	-3%	-21%	-2.1	0.7%	x	-3.4%
13	CCSc1nc2ccccc2n1CCOc1ccccc1	-19%	u	14%	-3.1	0.0%	-0.6	-1.1%
14	O=C(CSc1nnc(-c2ccccc2F)n1CCc1ccccc1)Nc1ccc2[nH]c(=O)[nH]c2c1	-6%	14%	-21%	-2.6	-0.2%	2.9	-1.1%
15	Cc1ccoc1C(=O)NCCCNC(=O)c1occc1C	-2%	-10%	8%	-5.6	-0.1%	-0.7	-0.9%
16	CCOc1ccc(S(=O)(=O)NCc2ccncc2)cc1NC(=O)c1ccccc1F	14%	6%	5%[15.4 µM]	2.0	12%	x	0.0%
17	Nc1c(-c2ccccc2)c(CN2CCOCC2)nn1-c1cccc([N+](=O)[O-])c1	17%	-1%	1%	2.3	-1.2%	0.3	x
18	O=C(CCCSc1nc2sc3c(c2c(=O)[nH]1)CCC3)NCCCO	-10%	-5%	6%	-1.6	14%[38.3 µM]	1.8	u
19	COc1cccc(CC(=O)NN2C(=O)NC3(CCCCC3)C2=O)c1	x	-2%	-1%	-1.1	0.0%	x	-0.3%
20	CC(=O)c1ccc(OCC(O)CN2CC(C)OC(C)C2)cc1 (stereo unspecified)	-13%	-12%[15.4 µM]	14%	-1.5	0.4%	3.3	-5.1%
21	CCCCCCCC(=O)N/N=C/c1ccc([N+](=O)[O-])o1	11%	-7%	-19%	2.3	6.2%	-0.2	0.6%
22	O=C(O)/C=C\C(=O)Nc1ccccc1C(=O)NCc1ccccc1	-1%	2%	1%	-2.9	-2.6%	6.4	4µM*
23	COC(=O)c1ccc(NC(=S)NCCCn2ccnc2)cc1	13%	8%	u	2.0	-1.0%	-3.2	x
24	C[C@@H](NC(=O)c1ncn(C)c1C(=O)N[C@H](C)c1ccccc1)c1ccccc1	x	4%	-27%	-2.0	1.9%	x	1.6%
25	Cc1ccc(S(=O)(=O)NCC(=O)OC(C(=O)c2ccccc2)c2ccccc2)cc1 (stereo unspecified)	6%	-24%	-9%	-1.4	-0.2%	2.5	1.1%
26	O=C(NCC1CCCCC1)c1cc(-c2cc(F)ccc2OCC2CCCO2)n[nH]1 (stereo unspecified)	x	x	x	-1.5	1.3%	x	-5.3%
27	CC(=O)Nc1sc2c(c1CN1CCCC1)CCCC2	14%	7%	20%[15.4 µM]	-1.4	1.3%	-1.8	x
28	Cc1nnc(NCc2cccc(Cl)c2)c2ccccc12	6%	-1%	15%[15.4 µM]	-3.9	1.3%	1.5	x
29	CC(=O)NCCC(=O)Nc1nc(C)c(Cc2ccc3c(c2)OCO3)s1	10%	-4%	-40%[inhibitor]	-4.2	-1.3%	0.6	-0.9%
30	CC1CCCN(S(=O)(=O)c2cc3c4c(c2)CCN4C(=O)CC3)C1 (stereo unspecified)	x	5%	5%[15.4 µM]	1.4	4.3%	x	x
31	CCc1ccc(S(=O)(=O)NC2CC(C)(C)NC(C)(C)C2)cc1	10%	5%	22%	-2.1	-0.8%	0.8	x
32	CCNc1nc(NCC)nc(N/N=C/c2ccccc2)n1	-8%	8%	-26%	-5.6	-0.2%	-3.5	-1.2%
33	Cc1cc(Oc2nc3c(C)cccn3c(=O)c2/C=C(\C#N)S(=O)(=O)c2ccccc2)ccc1Cl	16%	4%	-33%[inhibitor]	-0.5	-3.0%	3.4	-6.1%
34	Cc1c(-n2c(SCC(=O)N(C)C3CCS(=O)(=O)C3)nc3ccccc3c2=O)c(=O)n(-c2ccccc2)n1C (stereo unspecified)	12%	17%	-11%[15.4 µM]	-1.3	4.0%	-4.0	x
35	C=CCN(c1ccc(C(=O)Nc2cccc(C)c2)cc1)S(C)(=O)=O	8%	-8%	5%	-4.8	-1.3%	-1.7	x
36	Nc1ccccc1Nc1cc(-c2ccccc2)[nH]n1	-2%	-14%	25%[15.4 µM]	u	1.0%	9.3	x
37	Cc1ccc2nc(Nc3nc(CSc4nc5ccccc5s4)cc(=O)[nH]3)nc(C)c2c1	-4%	11%	-11%	-6.2	0.4%	-1.3	-2.7%
38	CCCCNCc1cc(Br)c(OCC(=O)N2CCOCC2)c(OC)c1	11%	18%	u	-0.4	7.2%[38.3 µM]	0.1	-0.5%
39	CCN1CCN(Cc2c(O)ccc3c(C)cc(=O)oc23)CC1	10%	6%	7%	-0.1	0.2%	-5.0	4.4%
40	CC(OC(=O)CN1C(=O)c2ccccc2C1=O)C(=O)NC1CCCCC1C (stereo unspecified)	x	1%	-3%[15.4 µM]	0.4	0.5%	x	-1.2%
41	N=c1n(CCO)c2ccccc2n1Cc1ccc(Cl)cc1	-27%	3%[15.4 µM]	4%	-2.1	-2.4%	-1.6	-0.2%
42	CC(=O)c1ccc(NC(=O)C(C)OC(=O)c2ccc(NS(=O)(=O)c3ccc(F)c(F)c3)cc2)cc1 (stereo unspecified)	19%	-27%	-30%[inhibitor]	0.2	-1.4%	x	0.6%
43	CC1CCCCN1C(=O)c1ccc(CS(=O)(=O)Cc2ccccc2)cc1 (stereo unspecified)	4%	-12%	-15%	1.2	-2.7%	-0.5	-7.2%
44	O=C(NCc1ccc(F)cc1)C1CC(=O)N(C2CCCCCCC2)C1 (stereo unspecified)	16%	0%	-7%	4.3	-0.1%	0.0	-1.7%
45	CC(Oc1ccccc1)C(=O)OCC(=O)Nc1sccc1C(N)=O (stereo unspecified)	x	-3%	-6%	-0.8	1.8%	x	-0.7%
46	CC12CCC(C(=O)Nc3cc(Cl)ccc3Cl)(C/C1=N\O)C2(C)C (stereo unspecified)	9%	1%	14%	0.6	-0.3%[38.3 µM]	3.7	-0.3%
47	CC12CCC(=O)C=C1C(O)CC1C2CCC2(C)C1CCC2(O)C(=O)CO (stereo unspecified)	x	6%	16%	2.0	1.9%	x	x
48	Cc1csc(NC(=O)C2CCCC2)n1	79µM*	5%	-3%	-3.7	-0.2%	0.7	-0.9%
49	Brc1ccc2c(c1)-c1ccccc1C1=NCCN12	x	x	u	-6.5	-0.9%	x	-7.9%
50	O=C(O)/C=C/c1ccccc1Oc1ccc(Cl)cc1Cl	15%	-16%	7%	-0.7	-1.0%	1.2	x
51	O=C(Cc1coc2ccc3ccccc3c12)NCc1cccs1	-12%	-4%	5%	0.2	4.8%	5.4	-3.1%
52	COc1cccc(C(=O)Nc2nnc(S(=O)(=O)N3CCCC3)s2)c1	14%	-21%	u	-4.2	3.3%&-0.8%	x	-2.5%&-4.1%
